From PubChem BioAssay
Ecoli rRNA inh: selective bacterial rRNA inhibition in E. coli | E. coli WT GFP vs humanized-ribosome RFP mutants, fluorescence, 24 h; hits give low values; DMSO median 0, no signal -100 | GFP signal change (wild-type ribosome), % (no concentration beside the values) | 1.6% of 350,000 active | AID 720706;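 active = significant combined selectivity score with lowered wild-type GFP, culture density cut under 30%, mutant RFP and density less affected; inactive = any of these conditions unmet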; also: one replicate is shown; some compounds called inactive have numbers as strong as hits
MLL AF4-AF9 inh: blocks AF4 peptide binding to human AF9; P42568; AlphaScreen, biotin-AF4 peptide binding to FLAG-AF9; inhibition, % at 10 µM; 0.47% of 350,000 active; AID 651704;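 active = every replicate reaching a set inhibition limit, whatever the replicate mean, cut at about 25% in these data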;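 also: 0% = plate neutral control median and 100% = total signal loss; the record names both 10 and 1 µM as test concentration; the first replicate is given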
Target sequence (P42568 whole entry, looked up): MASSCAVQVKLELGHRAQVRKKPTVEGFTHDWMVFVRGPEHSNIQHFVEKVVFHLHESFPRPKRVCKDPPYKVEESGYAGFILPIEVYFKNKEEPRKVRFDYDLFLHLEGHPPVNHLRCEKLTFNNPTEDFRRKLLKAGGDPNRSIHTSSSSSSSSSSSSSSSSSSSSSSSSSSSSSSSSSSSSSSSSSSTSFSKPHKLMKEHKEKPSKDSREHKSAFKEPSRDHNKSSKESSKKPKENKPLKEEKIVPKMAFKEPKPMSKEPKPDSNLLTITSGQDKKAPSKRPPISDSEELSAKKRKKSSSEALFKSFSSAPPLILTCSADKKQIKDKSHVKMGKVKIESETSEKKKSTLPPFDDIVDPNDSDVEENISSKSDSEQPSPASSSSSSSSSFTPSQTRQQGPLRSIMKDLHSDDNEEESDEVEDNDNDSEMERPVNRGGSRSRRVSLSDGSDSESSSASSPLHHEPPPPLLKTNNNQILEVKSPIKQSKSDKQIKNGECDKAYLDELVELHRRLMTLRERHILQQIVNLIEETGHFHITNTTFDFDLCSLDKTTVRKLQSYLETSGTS
Ecoli rRNA inh OD600: second read-out of Ecoli rRNA inh, no call of its own (marks repeat the call); OD600 change, %; measured here: OD600 growth;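 optical density of the mix in the first replicate; 0 = DMSO median and -100 = no signal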
Ecoli rRNA inh RFP: further read-out of Ecoli rRNA inh, marked with its call; RFP signal change, %; measured here: RFP humanized mutant strains;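 first replicate; 0 = DMSO median and -100 = no signal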
Active calls of the source: *. Some of the compounds tested; the hit share may differ from the screen's.

cpd	mol	Ecoli rRNA inh RFP	Ecoli rRNA inh OD600	MLL AF4-AF9 inh	Ecoli rRNA inh
1	O=C(NCc1cc(F)cc(F)c1)[C@H]1[C@H](CO)[C@H]2Cn3c(cccc3=O)[C@@H]1N2	1.1	7.4	-2.0	2.9
2	C[C@@H]1CCCCO[C@H](CN(C)S(=O)(=O)c2cccs2)[C@H](C)CN([C@@H](C)CO)C(=O)c2cc(NC(=O)Nc3ccc4c(c3)OCO4)ccc2O1	-1.5	-5.4	1.2	-3.5
3	CCCNC(=O)Nc1ccc2c(c1)OC[C@@H](C)N(Cc1cncnc1)C[C@@H](C)[C@H](OC)CN(C)C2=O	-2.4	3.3	-0.6	-2.0
4	Cc1noc(C)c1NC(=O)Nc1ccc2c(c1)C(=O)N([C@@H](C)CO)C[C@@H](C)[C@H](CN(C)C(=O)Nc1ccc3c(c1)OCO3)O2	0.3	2.5	0.3	3.9
5	C[C@H](CO)N1C[C@H](C)[C@@H](CN(C)C(=O)Nc2ccc(C(F)(F)F)cc2)OCCCC[C@H](C)Oc2ccc(NS(=O)(=O)c3cn(C)cn3)cc2C1=O	-3.4	-53.4	1.6	-30.5
6	C[C@H]1CN([C@@H](C)CO)C(=O)c2cc(NC(=O)Cc3ccccc3)ccc2O[C@H]1CN(C)C(=O)NC1CCCCC1	-0.4	7.6	-1.6	1.5
7	CCCNC(=O)N(C)C[C@@H]1Oc2ncc(Br)cc2C(=O)N([C@@H](C)CO)C[C@H]1C	-0.2	3.9	-5.6	4.5
8	CC(C)CC#Cc1ccc2c(c1)O[C@H](CN(C)Cc1cccnc1)[C@@H](C)CN([C@H](C)CO)S2(=O)=O	1.9	-17.1	5.5	-10.0
9	C[C@@H]1CN([C@@H](C)CO)C(=O)c2cccc(NC(=O)c3cnccn3)c2O[C@@H]1CN(C)C(=O)Nc1ccc(C(F)(F)F)cc1	-0.1	-0.2	-3.9	-4.8
10	CN(C)CC(=O)Nc1ccc2c(c1)[C@H]1C[C@H](CC(=O)N(C)C)O[C@H](CO)[C@H]1O2	0.4	1.5	-1.4	0.1
11	CCCNC(=O)C[C@@H]1CC[C@@H]2[C@H](COc3ccc(NC(=O)CCC)cc3C(=O)N2C)O1	-0.3	4.7	2.5	3.0
12	CCCc1cn(CC[C@H]2CC[C@H](NS(=O)(=O)c3ccccc3Cl)[C@@H](CO)O2)nn1	-1.6	1.8	1.8	1.0
13	C[C@@H]1CN([C@H](C)CO)S(=O)(=O)c2ccc(C#Cc3cccc(F)c3)cc2O[C@H]1CN(C)S(=O)(=O)c1cn(C)cn1	3.1	-13.0	0.8	-1.9
14	C[C@@H]1CN([C@@H](C)CO)C(=O)c2cc(-c3ccc(F)cc3)cnc2O[C@H]1CN(C)CC1CCOCC1	-2.2	11.1	0.1	3.0
15	CCCC#Cc1ccc2c(c1)O[C@@H](CN(C)C(=O)C1CCC1)[C@H](C)CN([C@H](C)CO)S2(=O)=O	-10.2	-71.1	5.1	-31.9

Part of the list above, reduced to Ecoli rRNA inh OD600.
# | Molecule | Ecoli rRNA inh OD600
13 | C[C@@H]1CN([C@H](C)CO)S(=O)(=O)c2ccc(C#Cc3cccc(F)c3)cc2O[C@H]1CN(C)S(=O)(=O)c1cn(C)cn1 | -13.0
14 | C[C@@H]1CN([C@@H](C)CO)C(=O)c2cc(-c3ccc(F)cc3)cnc2O[C@H]1CN(C)CC1CCOCC1 | 11.1
15 | CCCC#Cc1ccc2c(c1)O[C@@H](CN(C)C(=O)C1CCC1)[C@H](C)CN([C@H](C)CO)S2(=O)=O | -71.1

Next section.
cpd	mol	Ecoli rRNA inh RFP	Ecoli rRNA inh OD600	MLL AF4-AF9 inh	Ecoli rRNA inh
16	COc1ccc(S(=O)(=O)N(C)C[C@@H]2Oc3ccc(NS(=O)(=O)c4ccc(C)cc4)cc3C(=O)N([C@@H](C)CO)C[C@@H]2C)cc1	2.2	5.5	3.4	2.7
17	CC1C(=O)N(Cc2cn(CCC3OCCCO3)nn2)CCS(=O)(=O)N1Cc1ccc(-c2cccc(CO)c2)cc1 (configuration not stated)	3.1	-1.0	-0.6	0.4
18	O=C(C[C@H]1CC[C@@H](NS(=O)(=O)c2cccc(F)c2)[C@@H](CO)O1)NCc1ccc2c(c1)OCO2	1.5	-4.4	0.6	-2.2
19	CC(=O)Oc1ccc(Cn2c(C)c(C(=O)NCc3ccc(C#N)cc3)sc2=O)cc1	1.7	5.4	-1.3	-6.0
20	Nc1cc(=O)n(Cc2ccccc2)c(=O)n1Cc1ccccc1	3.4	11.1	-1.0	-0.4
21	CCNC(=O)C[C@H]1CC[C@@H]2[C@H](COc3ccc(NC(=O)Nc4ccccc4F)cc3C(=O)N2C)O1	1.3	3.1	-4.8	0.7
22	COc1ccc(C(N)c2csc(Nc3ncccn3)n2)cc1 (configuration not stated)	-0.5	9.2	-2.2	8.1
23	C[C@@H]1CN([C@H](C)CO)C(=O)c2cc(NC(=O)Nc3ccc(C(F)(F)F)cc3)ccc2O[C@@H]1CN(C)C(=O)Nc1ccccc1	3.2	-1.4	0.6	1.5
24	CCCC(=O)Nc1ccc2c(c1)C(=O)N(C)C[C@@H](OC)[C@H](C)CN(C(=O)CN1CCOCC1)[C@H](C)CO2	-0.8	-4.1	-2.3	-1.0
25	CSc1ccc(CN2CCC2(C)C(=O)Nc2cnc3ccccc3c2)cc1 (configuration not stated)	-5.4	-51.5	-2.0	-31.2
26	O=C(Nc1cccc(F)c1)N1CCCCN2[C@H](CO)[C@H](c3ccc(-c4ccncc4)cc3)[C@H]2C1	4.8	-4.8	1.4	-6.1
27	COc1ccccc1C(CC(=O)c1ccccc1)C(=O)c1ccccc1 (configuration not stated)	-3.9	6.7	-4.4	6.5
28	C[C@H]1CN([C@@H](C)CO)C(=O)c2cc(/C=C/c3ccccc3)cnc2O[C@@H]1CN(C)C(=O)c1ccccc1	20.6	-13.9	5.0	-1.1
29	O=C(C[C@H]1C=C[C@@H](NC(=O)C2CCC2)[C@@H](CO)O1)NC1CCCCC1	-1.6	11.7	-9.1	0.7
30	C[C@H]1CN([C@@H](C)CO)C(=O)c2cc(NS(C)(=O)=O)ccc2O[C@@H]1CN(C)C(=O)Nc1ccc2c(c1)OCO2	-0.9	2.3	-4.9	4.3
31	CNC[C@H]1OCCCC[C@H](C)Oc2ccc(NS(=O)(=O)c3ccccc3)cc2C(=O)N([C@@H](C)CO)C[C@H]1C	0.3	3.9	-3.2	3.5
32	C/C=C/c1ccc([C@H]2[C@H]3CN(S(=O)(=O)c4cccc(F)c4)CC(=O)N3[C@H]2CO)cc1	0.9	4.7	1.9	2.3
33	CCCNC(=O)[C@@H]1[C@@H](CO)[C@@H]2Cn3c(ccc(/C=C/c4ccccc4)c3=O)[C@@H]2N1CC	3.4	-6.2	-1.0	-3.5
34	COc1cccc(CN2[C@@H](CO)[C@@H](c3ccccc3)C23CN(C(=O)C2CCOCC2)C3)c1	0.5	-1.1	-1.4	1.7
35	COc1ccc(CN(C)C[C@@H]2Oc3ccc(NS(=O)(=O)c4cccs4)cc3C(=O)N([C@@H](C)CO)C[C@@H]2C)cc1	-4.9	0.8	-0.8	-1.4
36	COc1cccc(CN(C)C(=O)c2ccc(S(=O)(=O)Nc3ccccc3C)cc2)c1OC	0.6	-21.9	5.3	9.0
37	COCC(=O)Nc1ccc2c(c1)C(=O)N(C)C[C@@H](OC)[C@@H](C)CN(Cc1ccccc1F)[C@@H](C)CO2	-0.2	3.8	4.9	-0.1
38	CC=Cc1ccc2n(c1=O)C[C@@H]1[C@@H](CO)[C@H](C(=O)NCC3CC3)[C@H]2N1Cc1cccnc1 (mixture of isomers)	1.8	-0.9	-3.1	-0.2
39	C[C@@H]1CN([C@@H](C)CO)C(=O)c2cccc(NC(=O)NC3CCCCC3)c2O[C@@H]1CN(C)Cc1ccncc1	-0.5	-10.0	-1.0	0.8
40	COc1ccc2c3c([nH]c2c1)[C@H](CO)N(Cc1ccc(Cl)cc1)CC31CCN(C(=O)CN(C)C)CC1	5.5	10.0	0.3	5.0
41	CCCN1C[C@@H](C)[C@@H](OC)CN(C)C(=O)c2ccc(NC(=O)Nc3c(C)noc3C)cc2OC[C@@H]1C	-1.8	1.6	-0.5	-0.2
42	CNC[C@H]1Oc2cc(-c3ccccc3F)ccc2S(=O)(=O)N([C@H](C)CO)C[C@H]1C	-2.2	9.6	-2.7	3.6
43	C[C@@H]1CN([C@@H](C)CO)C(=O)c2cc(NS(=O)(=O)c3ccc(Cl)cc3)ccc2O[C@@H](C)CCCCO[C@@H]1CN(C)S(=O)(=O)c1cccs1	0.4	9.2	-2.5	-0.3
44	O=S(=O)(c1ccc(F)cc1)N1CC[C@@H]2[C@@H](CO)Nc3ccc(-c4ccccc4F)cc3[C@@H]21	11.1	-50.5	1.8	-18.4
45	CN1C(=O)c2cc(NC(=O)c3ccc(C(F)(F)F)cc3)ccc2OC[C@H]2O[C@H](CC(=O)O)CC[C@H]21	0.2	3.6	-0.5	1.2
46	COc1ccc([C@@H]2CC(=O)[C@@H]3CN(S(=O)(=O)c4ccc(C)cc4)[C@H](c4cccc(Cl)c4)C[C@@H]3N2S(=O)(=O)c2ccccc2)cc1	-3.8	24.8	-4.4	8.9
47	O=C(N[C@H]1CC[C@H](CCn2cc(C3(O)CCCC3)nn2)O[C@@H]1CO)C1CC1	-0.7	-2.3	-2.5	-1.0
48	CC(C)c1cn(CC[C@H]2CC[C@@H](NS(=O)(=O)Cc3ccccc3)[C@@H](CO)O2)nn1	1.4	-0.7	0.2	1.1
49	C[C@@H]1CN([C@@H](C)CO)C(=O)Cc2cc(NC(=O)C3CCCCC3)ccc2O[C@H]1CN(C)Cc1ccc(-c2ccccc2)cc1	2.2	-8.2	0.8	-1.6
50	COc1cc(C(O)c2nc(-c3cccc(C#N)c3)cs2)ccc1F (configuration not stated)	-9.7	-66.6	-1.1	-45.0
51	CC(=O)N1CC(=O)N2[C@H](CO)[C@@H](c3ccc(C#Cc4cccnc4)cc3)[C@H]2C1	-1.1	5.7	-0.9	5.9
52	CCNC[C@@H]1[C@H](c2ccccc2)[C@H](CO)N1C(=O)Cc1ccccn1	1.3	4.0	1.7	0.7
53	N#CCCN(Cc1ccccc1)C(c1ccnc2ccccc12)c1nnnn1-c1ccc2c(c1)OCCO2 (configuration not stated)	4.5	-13.9	1.6	-11.5
54	CC(=O)N(C)C[C@H]1Oc2cc(C#C[C@H](C)O)ccc2S(=O)(=O)N([C@H](C)CO)C[C@H]1C	-3.5	7.1	-2.0	7.1
55	CCOC(=O)C1CCCN(C(=O)c2ccncc2)CC1 (configuration not stated)	2.7	-22.6	1.6	3.5
56	O=C(C[C@H]1CC[C@H]2[C@@H](COC[C@@H](O)CN2C(=O)c2cccnc2)O1)NC1Cc2ccccc2C1	3.2	8.0	-0.4	1.6
57	CCC(=O)N1CC[C@@H]2[C@@H](CO)N(C)c3ccc(-c4ccccc4)cc3[C@@H]21	3.6	-21.6	-1.0	-1.0
58	Cc1ccc(S(=O)(=O)N[C@@H]2CC[C@H](CCNC(=O)C3CC3)O[C@@H]2CO)cc1	-1.3	0.3	-1.2	0.1
59	O=C(N[C@@H]1CC[C@H](CCNS(=O)(=O)c2cccc(Cl)c2)O[C@H]1CO)c1ccncc1	-0.3	-0.9	-0.8	0.1
60	O=S(=O)(c1ccccc1)N1CCCCN2[C@H](CO)[C@H](c3ccc(C#Cc4ccccc4)cc3)[C@@H]2C1	-2.1	16.6	-7.3	5.2
61	COc1ccc(CN(C)C[C@H]2Oc3ccc(NC(=O)Nc4ccc(C(F)(F)F)cc4)cc3CC(=O)N([C@@H](C)CO)C[C@@H]2C)cc1	2.8	-9.5	1.3	-1.8
62	O=C(C[C@H]1CC[C@H](NC(=O)Nc2cc(F)ccc2F)[C@H](CO)O1)NCc1ccc2c(c1)OCO2	-0.1	-3.3	-16.3	-5.9
63	C[C@@H]1CN([C@@H](C)CO)C(=O)c2cc(NC(=O)Nc3cccc4ccccc34)ccc2O[C@@H]1CN(C)Cc1ccc(C(F)(F)F)cc1	1.7	5.9	0.6	3.8
64	C[C@@H]1CCCCO[C@H](CN(C)Cc2ccncc2)[C@H](C)CN([C@@H](C)CO)C(=O)c2cc(NS(=O)(=O)c3cccs3)ccc2O1	1.9	2.7	1.6	-1.4
65	O=C(C[C@H]1CC[C@H]2[C@@H](COC[C@H](O)CN2Cc2ccccc2F)O1)NC1CCC1	-2.4	-1.4	-0.5	2.1
66	Cc1cccc(S(=O)(=O)N2C[C@H]3[C@@H](c4ccccc42)[C@@H](CO)N3CC2CCCC2)c1	-11.5	-74.5	1.7	-53.2
67	CCC(=O)N1C[C@@H](C)[C@H](OC)CN(C)C(=O)c2ccc(NC(=O)C3CC3)cc2OC[C@H]1C	-1.2	2.7	-2.4	2.9
